fixLJ activator = activators of Burkholderia fixLJ two-component system, primary screen, B. multivorans, GFP reporter; z-score (test concentration not listed); AID 1918990, 2023; B. multivorans fixK-promoter GFP reporter, 18 h; hits give high values; 29,000 tested, 0.3% active;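 active = replicate mean overnight rise in green fluorescent reporter signal, 3 or more SD over negative controls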;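 note: score is relative to vehicle wells of the plate; 300 nL library stock went into each well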
* marks the source's active call; other numbers are inactive results; & = joins results of further samples.

SMILES | fixLJ activator
CC(C)(N)Cc1ccccc1 | -1.49
CCCCCn1c(CNC(=O)c2ccc(F)cc2)nc2ccccc21 | -0.17
CCCc1cc(=O)n2[nH]c(NC(=O)c3ccccc3Cl)nc2n1 | 1.19
COc1ccc(CCNC(=O)CCCn2c(=O)c3ccccc3n(CC(=O)Nc3c(C)cc(C)cc3C)c2=O)cc1OC | -2.46
O=C(CN1C(=O)COc2ccc(S(=O)(=O)N3CCOCC3)cc21)N1CCN(c2ccc(Cl)cc2)CC1 | 0.53
CC(CNC(=O)CN1CCN(c2ncccn2)CC1)Oc1cccnc1 (stereo not given) | -0.31
O=c1c2c3c(sc2nnn1CCCCOc1ccc(Cl)cc1)CCCC3 | 1.71
COc1ccc(-n2nc3ccc(NC(=O)c4ccc(C#N)cc4F)cc3n2)cc1Cl | -1.74
Cn1cc(CCC(=O)N2CCC3(CC2)c2nc[nH]c2CCN3C(=O)C2CC2)cn1 | -0.47
Cc1c(CNCc2ccc(Cl)cc2)c(C(=O)O)c(C)n1Cc1ccc(F)cc1 | -0.78
O=C(NCCC1CCCCN1Cc1ccccc1)c1cccc(=O)[nH]1 (stereo not given) | -0.67
COc1ccc(C)cc1NC(=O)c1cc2c(s1)-c1ccccc1SC2 | 0.34
COc1ccccc1CNCc1ccc(C(=O)O)s1 | -0.77
Cc1cc(C)cc(OCCn2c(C3CC(=O)N(c4ccccc4Cl)C3)nc3ccccc32)c1 (stereo not given) | -1.19
CCOC(=O)c1cc(NC(=O)N(Cc2cnn(C)c2)C2CC2)ccc1Cl | -1.35

Among those listed so far, 3 have an NH in an aromatic ring:
SMILES | fixLJ activator
CCCc1cc(=O)n2[nH]c(NC(=O)c3ccccc3Cl)nc2n1 | 1.19
Cn1cc(CCC(=O)N2CCC3(CC2)c2nc[nH]c2CCN3C(=O)C2CC2)cn1 | -0.47
O=C(NCCC1CCCCN1Cc1ccccc1)c1cccc(=O)[nH]1 (stereo not given) | -0.67

The listing picks up, starting 4 compounds before the break.
SMILES | fixLJ activator
COc1ccc(C)cc1NC(=O)c1cc2c(s1)-c1ccccc1SC2 | 0.34
COc1ccccc1CNCc1ccc(C(=O)O)s1 | -0.77
Cc1cc(C)cc(OCCn2c(C3CC(=O)N(c4ccccc4Cl)C3)nc3ccccc32)c1 (stereo not given) | -1.19
CCOC(=O)c1cc(NC(=O)N(Cc2cnn(C)c2)C2CC2)ccc1Cl | -1.35
CCC(Cc1ccccc1)NC(=O)Cn1ncc2c3ccccc3n(Cc3ccccc3)c2c1=O (stereo not given) | -1.06
CCCN(C)C(=O)c1coc(COc2ccc(F)cc2Cl)n1 | -0.44
COc1nc2c(cc1C(=O)NCCc1cn[nH]n1)C(=O)N(C1CCCC1)C2 | -0.2
CN(Cc1ccccc1)C(=O)c1ccc2c(c1)N(Cc1ccc(Cl)cc1)C(=O)c1ccccc1S2=O (stereo not given) | -0.97
COCc1c(C(=O)N2CCC(Sc3ccccc3C)CC2)noc1C | 0.28
Cc1ccc2cccc(NC(=O)C(C)(C)Oc3ccc(Br)cc3)c2n1 | -0.54
Cc1cc(NC(=O)C2CCCN(S(=O)(=O)c3cccc4nonc34)C2)ccc1Br (stereo not given) | -0.27
CC(=O)Nc1cc(-c2nc3ccccc3s2)ccc1C | 0.8
Cc1oc(-c2ccccc2F)nc1CSCC(=O)NCCc1ccccc1 | -0.94
COc1ccc(S(=O)(=O)c2cn(CC(=O)Nc3cc(C)ccc3C)c3ccccc3c2=O)cc1 | -1.01
CCOCCCNC(=O)C(c1ccc(OC)cc1)N(Cc1ccc2c(c1)OCO2)C(=O)c1ccc(NC(C)=O)cc1 (stereo not given) | -1.4
COc1cccc(NC(=O)c2nnn(Cc3cccc(C(F)(F)F)c3)c2N)c1 | 0.13
CCn1c(CN(C)C)nnc1C1CCN(C(=O)c2cccc(OC)c2)CC1 | -0.59
CC(C)c1nc(CN(C)C(=O)CCC2=NNC(=O)CC2)cs1 | -0.41
CC(C)COc1ccc(C(=O)Nc2scc(-c3ccc(Br)cc3)c2C(=O)OC(C)C)cc1 | -0.47
Cn1c(C(=O)NCc2ccc(Cl)cc2)cc2c(=O)n(C)c3ccccc3c21 | -1.48
CCOC(=O)Cn1c(=O)oc2cc(S(=O)(=O)N3CCN(c4ccccc4OC)CC3)ccc21 | -0.81
COc1ccc(-c2noc(N3CCC(C(=O)Nc4ccc(C)c(F)c4)CC3)n2)cc1OC | -0.3
O=C(CC1CCC1)NC1CCOCC1Oc1ccc(C(=O)O)cc1 (stereo not given) | -2.18
COc1cc2c(=O)c(S(=O)(=O)c3ccc(C(C)C)cc3)cn(Cc3ccccc3C)c2cc1OC | 0.3
COC(=O)c1c(NC(=O)/C(C#N)=C/c2ccc(OC)cc2)sc2c1C(C(=O)OC)CC2 (stereo not given) | 0.44
CCOC(=O)c1c(NC(=O)c2cc(-c3ccccc3OC)on2)sc(C)c1C | -0.5
Cn1nc(CNCCN2CCCC(CO)C2)c2c(Cl)cccc21 (stereo not given) | 0.64
CCOCCCNC(=O)Cn1nc(C)n2c(cc3cc(C)ccc32)c1=O | -1.71
Cc1cc(C(=O)Nc2cccc(-c3cnc[nH]3)c2)ccc1N1CCOCC1 | -0.56
CC(C)Cn1nc(C(=O)O)c2c1CCN(C(=O)CC(C)c1ccccc1)C2 (stereo not given) | -2.45
Cc1ccc(NC(=O)Cn2cc3c(n2)CCCC3)c(C)c1 | -0.68
COc1ccc(N2CCN(C(=O)Nc3cccc(C(F)(F)F)c3)CC2)cc1 | -0.43
CC(C)CN1CCN(C(=O)c2ccc(C#N)cc2)C2CS(=O)(=O)CC21 (stereo not given) | -0.21
Cc1c(Cl)cccc1Nc1ccccc1C(=O)O | -1.62

Random excerpt: four entries already listed.
SMILES | fixLJ activator
CCOCCCNC(=O)Cn1nc(C)n2c(cc3cc(C)ccc32)c1=O | -1.71
O=C(CC1CCC1)NC1CCOCC1Oc1ccc(C(=O)O)cc1 (stereo not given) | -2.18
COc1cc2c(=O)c(S(=O)(=O)c3ccc(C(C)C)cc3)cn(Cc3ccccc3C)c2cc1OC | 0.3
Cn1nc(CNCCN2CCCC(CO)C2)c2c(Cl)cccc21 (stereo not given) | 0.64

The main list resumes, starting 3 compounds before the break.
SMILES | fixLJ activator
COc1ccc(N2CCN(C(=O)Nc3cccc(C(F)(F)F)c3)CC2)cc1 | -0.43
CC(C)CN1CCN(C(=O)c2ccc(C#N)cc2)C2CS(=O)(=O)CC21 (stereo not given) | -0.21
Cc1c(Cl)cccc1Nc1ccccc1C(=O)O | -1.62
Cc1ccc(-c2nnc(Nc3cccc(Br)c3)c3ccccc23)cc1S(=O)(=O)N1CCCCC1 | -0.27
N#CC1=C2SCN(C3CCCCC3)CN2C(=O)CC1c1ccc(F)cc1 (stereo not given) | -1.61
CS(=O)(=O)CC(O)c1cc2n(n1)CCN(C1CCCCCC1)C2 (stereo not given) | 0.14
O=C(CCc1ccccc1F)NC(c1ccc2c(c1)CCO2)C1CC(O)C1 (stereo not given) | 0.57
CCc1nn(Cc2ccc(Cl)cc2)c(=O)c2cc3cc(C)ccc3n12 | -1.87
Cc1ccnc(SCC(=O)NCCn2nc(C(F)(F)F)cc2C)n1 | -0.24
CCOC(=O)c1c(Nc2ccc(C)c(C)c2)nnc(-c2ccccc2)c1-c1ccccc1 | -0.74
O=c1[nH]c(=O)n([C@H]2C[C@H](O)[C@@H](CO)O2)cc1I | -1.86
CC(=O)NO | -1.16
COc1ccccc1C1CN(C(=O)c2ccc3n[nH]nc3c2)CC1C(=O)O (stereo not given) | -2.51
COc1ccccc1CNC(=O)C(Cc1ccccc1)NS(=O)(=O)c1ccc2c(c1)CCN2C(C)=O (stereo not given) | -1.63
COc1ccccc1CCNC(=O)C(C)Sc1nc(-c2ccccc2)cc(C(F)(F)F)n1 (stereo not given) | 0.84
Cc1ccnc(SCC(=O)NCCCc2csc(N)n2)n1 | 0.4
Cc1ccc(C(=O)NCCC(=O)NCCN2CCCC(CO)C2)cc1 (stereo not given) | -2.57
CCc1ccccc1NC(=O)CCCN1C(=O)COc2ccc(C)cc21 | -2.14
Cc1nc2c(c(C)c1CCC(=O)Nc1ccc(F)cc1)c(=O)n(C)c(=O)n2C | -0.3
COc1ccc(C(=O)NCCn2cc(SCC(=O)Nc3ccc4c(c3)OCCO4)c3ccccc32)cc1OC | -0.56
CCCc1nc(C(=O)N2CCCC3(CCc4cnc(N(C)C)nc43)C2)cs1 (stereo not given) | -1.06
CCOC(=O)c1c(Nc2ccc(OC)cc2)nnc(-c2ccccc2)c1-c1ccccc1 | 1.67
Cc1ccc(N2C(=O)CS(=O)(=O)C23C(=O)N(Cc2ccccc2F)c2ccccc23)cc1Cl (stereo not given) | 0.28
CC(N)C12CC3CC(CC(C3)C1)C2 (stereo not given) | -0.06&1.53
CSc1ccc(C2CC(=O)Oc3c2c(=O)n(C)c2ccccc32)cc1 (stereo not given) | -1.14
Cc1noc(C)c1CN1CCc2c(C(=O)NCCCc3ccccn3)csc2C1 | 0.22
CC(Cn1cncn1)NC(=O)N(C)CCCOc1ccc(Cl)cc1 (stereo not given) | 0.35
Cc1ccc(-n2nc(C(=O)N3CCN(c4cc(C)ccc4C)CC3)c3c4ccccc4n(C)c3c2=O)cc1 | 0.02
COc1ccc(NC(=O)C2CCCN(S(=O)(=O)c3ccc(Br)s3)C2)cc1 (stereo not given) | -1.23
O=C(Nc1ccccc1-c1nc2ccccc2s1)c1ccc(F)cc1 | -0.95
Cc1cccc(NC(=O)c2oc3ccccc3c2NC(=O)Cc2coc3c(C)c(C)ccc23)c1 | -0.33
CCOC(=O)c1cccc(NC(=O)CCS(=O)(=O)c2ccc(Br)s2)c1 | -0.71
Cc1ncccc1C(=O)N1CCC(c2ccc3ccccc3c2)C(O)C1 (stereo not given) | -2.72
CCOC(=O)Cn1c(=O)oc2cc(S(=O)(=O)N3CCN(c4ccc(C(C)=O)cc4)CC3)ccc21 | -1.99
O=C1COc2cc(C(=O)N3CCC4OCc5cnnn5C4C3)ccc2N1 (stereo not given) | -2.84
O=C(Cn1c(=O)oc2cc(S(=O)(=O)NCc3ccccc3)ccc21)NCc1ccc(F)cc1 | -1.13
Cc1cccc(NC(=O)CN(C)S(=O)(=O)c2cnc[nH]2)c1C | -0.66
COc1cccc(C)c1C(=O)Nc1ccc(C(=O)NC(C)C)cc1 | -0.84
Cc1cc(C)nc(N2CCN(C(=O)Nc3cccc(CC(N)=O)c3)CC2)n1 | 0.34
CCCCn1c(CNC(=O)C23CC4CC(CC(C4)C2)C3)nnc1SCC(=O)Nc1ccc(F)cc1 | -0.24
CCOc1ccccc1NC(=O)Cn1c(=O)n(CCCCC(=O)NCCCOC)c(=O)c2ccccc21 | -1.64
CCC(O)C(=O)NCc1cccnc1Oc1cccc(C(F)(F)F)c1 (stereo not given) | 0.53
O=c1n(Cc2ccc(F)cc2)nc2n1-c1cc(Cl)ccc1OC2 | 0.44
Cc1nc(SCC(=O)N2CCC(OCc3cccnc3)CC2)n[nH]1 | -1.09
CN(C)c1ccc(C(=O)Nc2ccc(-c3nc4ccccc4o3)cc2)cc1 | 0.43
Cc1cc2ccccc2n1CCNC(=O)c1ccc(F)cc1 | -0.94
CCN(Cc1nc(C(C)C)no1)C(=O)c1ccc(Cl)cc1F | 0.57
COc1ccc(OC)c(NC(=O)[C@H](Cc2ccccc2)N2Cc3ccccc3C2=O)c1 | 0.74
CCOc1ccc(CCNC(=O)CCc2c(C)nc3c(c(C)nn3-c3ccc(C)c(C)c3)c2C)cc1 | -0.27
CC1CCCCN1Cc1nc2c(c(=O)n(C)c(=O)n2C)n1Cc1ccc(Br)cc1 (stereo not given) | -1.06
C[N+]1(C)[C@@H]2CC(OC(=O)C(O)(c3cccs3)c3cccs3)C[C@H]1[C@@H]1O[C@@H]12 (stereo not given in full) | -1.46
COC(=O)C1=C(C)NC(=O)NC1c1cn(-c2ccccc2)nc1-c1ccc(OC)c(Br)c1 (stereo not given) | -2.93
O=C(CCc1cn[nH]c1)N1CCC(Oc2cccc(C(F)(F)F)c2)CC1 | -1.5
CC(C)C[C@H]1C(=O)N2CCC[C@H]2[C@]2(O)O[C@](NC(=O)[C@@H]3C=C4c5cccc6[nH]c(Br)c(c56)CC4N(C)C3)(C(C)C)C(=O)N12 (stereo not given in full) | -1.1
CCC(=O)N1c2ccc(S(=O)(=O)CCC(=O)N3CCN(c4cc(C)ccc4C)CC3)cc2CC1C (stereo not given) | -1.85
CC[C@@]1(O)CCCC2CN(C(=O)c3cc(S(N)(=O)=O)ccc3OC)CC21 (stereo not given in full) | -1.42
O=C(O)CSc1nc2ccccc2nc1N1CCCCC1 | -2.4
O=C(C1CCCC1)N1CCC(Nc2cnc3ccccc3n2)CC1 | 0.52
CCn1cc(/C=C(\NC(=O)c2ccccc2Cl)C(=O)NCCCn2ccnc2)c2ccccc21 | -0.66
COc1cccc(Cn2c(Oc3cc(C)cc(C)c3)nc3c2c(=O)n(C)c(=O)n3C)c1 | 0.21
COc1ccc(N(CC(=O)N2CCCCC2)S(=O)(=O)c2ccc(OC)c(OC)c2)cc1 | -0.61
CCN(CCCNC(=O)CSc1cc(=O)n(CC)c2ccccc12)c1ccccc1 | -1.29
COc1ccc(S(=O)(=O)N(CC(=O)Nc2ccc(OC)cc2OC)c2ccc(Cl)cc2)cc1 | 1.1
New compounds follow
SMILES | fixLJ activator
CCn1cc(C(=O)N2CCN(c3cccc(Cl)c3)CC2)c(=O)c2cc(S(=O)(=O)N3CCC(C)CC3)ccc21 | -1.98
CCOc1ccc2nc(N3CCCC(C(=O)Nc4c(C)cccc4C)C3)sc2c1 (stereo not given) | -1.26
CCOc1ccc(NC(=O)CC(=O)N2CCCn3cncc3C2)cc1 | -3.41
CCc1ccc2oc(C(=O)NCCc3ccc(OC)c(OC)c3)cc(=O)c2c1 | -1.75
O=C(Nc1ccc(F)c(Cl)c1)C1Cc2ccccc2CN1S(=O)(=O)c1ccc(F)cc1 (stereo not given) | 0.29
NC(=O)N1c2ccccc2C=Cc2ccccc21 | -1.93&-0.56

This is a subset, so the mix of outcomes need not match the whole.
